hcGAS inh = blocks human cGAS activity; recombinant h-cGAS, ATP depletion, Kinase-Glo luminescence; inhibition, % at 12.5 µM; 0.081% of 290,000 active; Q8N884;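 further: 0% = vehicle reaction and 100% = reaction without DNA for no activity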
Target sequence (Q8N884 whole entry, looked up): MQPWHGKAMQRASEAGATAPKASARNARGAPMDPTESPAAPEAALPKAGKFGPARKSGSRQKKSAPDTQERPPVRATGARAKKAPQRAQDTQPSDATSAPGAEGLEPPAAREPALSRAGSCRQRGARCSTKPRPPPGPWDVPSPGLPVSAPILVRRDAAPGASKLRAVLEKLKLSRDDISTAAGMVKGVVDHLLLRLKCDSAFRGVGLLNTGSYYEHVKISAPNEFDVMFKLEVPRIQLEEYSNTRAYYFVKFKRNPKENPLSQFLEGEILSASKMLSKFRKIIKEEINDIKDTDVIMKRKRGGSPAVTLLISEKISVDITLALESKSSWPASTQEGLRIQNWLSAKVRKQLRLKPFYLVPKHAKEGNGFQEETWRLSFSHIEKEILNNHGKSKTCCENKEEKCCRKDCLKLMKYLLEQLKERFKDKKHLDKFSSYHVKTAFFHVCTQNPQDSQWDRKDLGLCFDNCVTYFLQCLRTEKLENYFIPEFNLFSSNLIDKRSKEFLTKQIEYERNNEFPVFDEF
mcGAS lum = blocks mouse cGAS activity. recombinant cGAS, Kinase-Glo ATP depletion luminescence. inhibition, % at 12.5 µM. 0.15% of 160,000 active. AID 1259399;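 further: 0% = negative control wells and 100% = reference inhibitor with no enzyme activity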
An asterisk follows results filed as active; / = not tested or not shown. No stated cut-off is given here; in the data, active means inhibition above about 40%; inactive means the rest. A portion of the library; most or all hits stand in other tables.

Every second line gives: hcGAS inh, mcGAS lum
1) CC1CCc2c(sc(NC(=O)CCC(=O)O)c2C(=O)Nc2ccc(Cl)cc2)C1 (stereo not drawn)
  -7.5, 1.6
2) Cc1cc(/C=C2\SC(=S)N(CC(=O)O)C2=O)c(C)n1-c1ccccc1
  -0.5, 1.8
3) CCOc1ccc(-c2nc(C(N)=O)c3[nH]c(=O)n(-c4ccccc4OC)c3n2)cc1
  -10.2, -9.7
4) COc1ccc(C(=O)CC2OC(=O)c3ccccc32)cc1 (stereo not drawn)
  -11.9, -4.2
5) COc1ccc(C(=O)C=Cc2cc(OC)c(OC)c(OC)c2)cc1
  -19.9, 29.1
6) O=C(O)CCC(=O)N(Cc1ccco1)C1CC(=O)N(c2ccc(Cl)cc2)C1=O (stereo not drawn)
  4.6, /
7) O=C1NC(=S)SC1=Cc1cccnc1
  -2.7, /
8) NC(COc1ccccc1)c1ccccc1 (stereo not drawn)
  -5.3, /
9) Cc1ccccc1NC(=O)c1c(NC(=O)CCC(=O)O)sc2c1CCCC2
  -4.1, -5.1
10) C=CCOc1cccc(C2NC(=O)c3ccccc3N2)c1 (stereo not drawn)
  0.1, -5.9
11) CCN(CC)CCCC(C)Nc1nc(/C=C/c2ccc(Br)cc2)nc2cc(Cl)ccc12 (stereo not drawn)
  -5.7, -5.1

Arranged by SMILES length (largest number first): some entries from above
Every second line gives: hcGAS inh, mcGAS lum
3) CCOc1ccc(-c2nc(C(N)=O)c3[nH]c(=O)n(-c4ccccc4OC)c3n2)cc1
  -10.2, -9.7
9) Cc1ccccc1NC(=O)c1c(NC(=O)CCC(=O)O)sc2c1CCCC2
  -4.1, -5.1
8) NC(COc1ccccc1)c1ccccc1 (stereo not drawn)
  -5.3, /

Of the compounds above, these have an aryl methoxy group:
Every second line gives: hcGAS inh, mcGAS lum
3) CCOc1ccc(-c2nc(C(N)=O)c3[nH]c(=O)n(-c4ccccc4OC)c3n2)cc1
  -10.2, -9.7
4) COc1ccc(C(=O)CC2OC(=O)c3ccccc32)cc1 (stereo not drawn)
  -11.9, -4.2
5) COc1ccc(C(=O)C=Cc2cc(OC)c(OC)c(OC)c2)cc1
  -19.9, 29.1

Compound activity from PubChem BioAssay.
